Screens from PubChem.
PABP FP inh: blocks human PABP binding to poly(A) RNA | P11940 | fluorescence polarization | inhibition, % at 35 µM | actives 1% (n = 290,000);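 active = 50% or more with normal probe brightness, or confirmed in later tests; inconclusive = above 50% with abnormal brightness, or retests that disagree; inactive = below 50% or failed in later tests; about a fifth of its hits are not listed in these tables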;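 note: calls also rest on retests at 20 µM and on dose response follow-up; controls were probe without protein and protein plus probe with vehicle; some compounds called inactive have numbers as strong as hits; many hits fall short of the cut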
Target sequence (P11940 whole entry, looked up): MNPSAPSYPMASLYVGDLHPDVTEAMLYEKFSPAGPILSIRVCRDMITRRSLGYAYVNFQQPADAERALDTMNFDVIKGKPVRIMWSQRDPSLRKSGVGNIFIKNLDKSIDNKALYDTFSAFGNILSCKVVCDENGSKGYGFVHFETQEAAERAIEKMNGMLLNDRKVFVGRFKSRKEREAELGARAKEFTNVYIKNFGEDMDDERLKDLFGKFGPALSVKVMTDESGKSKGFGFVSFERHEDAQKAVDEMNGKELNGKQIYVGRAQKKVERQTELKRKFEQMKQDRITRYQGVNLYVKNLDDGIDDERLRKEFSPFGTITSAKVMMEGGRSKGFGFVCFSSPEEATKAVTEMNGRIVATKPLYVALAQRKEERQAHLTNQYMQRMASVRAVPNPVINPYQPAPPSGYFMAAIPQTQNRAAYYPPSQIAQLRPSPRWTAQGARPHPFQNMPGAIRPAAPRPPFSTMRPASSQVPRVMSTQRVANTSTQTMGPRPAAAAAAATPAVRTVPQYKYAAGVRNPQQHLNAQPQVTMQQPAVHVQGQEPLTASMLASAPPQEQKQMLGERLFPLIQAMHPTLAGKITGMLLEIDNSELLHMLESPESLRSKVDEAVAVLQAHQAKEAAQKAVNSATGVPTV
Yeast UUG start: modulators of start codon recognition fidelity in yeast; S. cerevisiae UUG-firefly luciferase reporter, luminescence/redox ratio; AID 602363; activity score, % at 18.7 µM; actives 0.13% (n = 350,000);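 active = replicate mean at a twofold rise or more, about +100% in these data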;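 note: firefly luciferase made from a UUG start codon reports start codon fidelity; reporter light over untreated wells divided by growth signal over untreated wells; some hits fall short of that in this replicate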
CSC inhib: cancer stem cell inhibition | AID 2717 | actives 1.1% (n = 300,000) | cancer stem cell-like cells viability, luminescence | inhibition, % at 7.5 µM;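 active = mean at 75% or more and at least half the replicates too; inconclusive = mean and replicates disagree; tested in HMLE shEcad cells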;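 note: 0% = median of negative and 100% = median of positive control wells; the first replicate is given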
Rce1 inhib: inhibitors of yeast Ras-converting enzyme; actives 0.27% (n = 290,000); Q03530; calls only; yeast membranes, quenched prenylated peptide cleavage fluorescence; AID 2563;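 active = fall in fluorescence gain of 50% or more versus controls, with final raw signal at or below 3038400; inconclusive = same 50% fall but final raw signal above 3038400; inactive = fall in fluorescence gain under 50%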;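 note: plate controls were neutral control wells for no effect and wells lacking membranes for full effect; tested at 10 µM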
Target sequence (Q03530 whole entry, looked up): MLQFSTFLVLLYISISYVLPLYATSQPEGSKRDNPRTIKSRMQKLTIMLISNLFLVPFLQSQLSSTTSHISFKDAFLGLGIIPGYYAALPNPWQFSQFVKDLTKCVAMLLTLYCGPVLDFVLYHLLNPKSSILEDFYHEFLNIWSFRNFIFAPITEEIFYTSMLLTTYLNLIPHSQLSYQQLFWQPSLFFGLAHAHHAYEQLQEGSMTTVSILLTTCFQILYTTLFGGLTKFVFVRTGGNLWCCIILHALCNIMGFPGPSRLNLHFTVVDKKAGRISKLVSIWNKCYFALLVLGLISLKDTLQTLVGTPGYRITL
MT1-MMP act inh: MT1-MMP (human) activation inhibition; HT1080 RFP-PRO-GFP cells, GFP/RFP ratio fluorescence, overnight; percent of plate control window, DMSO zero; GFP/RFP ratio change, % at 20 µM; actives 0.061% (n = 360,000);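 active = GFP/RFP ratio change of at least 30% with cell ATP level not reduced by more than half and red fluorescence within 50% of control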; note: strong numbers were not always called active
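Assay system: RFP-PRO-GFP reporter HT1080 cells; read-out basis: GFP/RFP fluorescence ratio; benchmarks: DMSO wells and RFP-L50D-GFP cells; doses: 20 µM single dose, 1% DMSO; schedule: overnight cell settling, then overnight compound exposure, 37 °C, 5% CO2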
eIF4H FP inh: inhibitors of RNA binding by human eIF4H. inhibition, % at 35 µM. actives 0.94% (n = 290,000). Q15056. eIF4H fluorescence polarization binding assay;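 active = 50% or more with normal probe brightness, or confirmed in later tests; inconclusive = above 50% with abnormal brightness, or retests that disagree; inactive = below 50% or failed in later tests; about a fifth of its hits are not listed in these tables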;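 note: calls also rest on retests at 20 µM and on dose response follow-up; 0% = protein and probe with vehicle and 100% = probe without protein; strong numbers were not always called active; many hits fall short of the cut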
HIV Env fusion: HIV envelope-mediated fusion inhibition. AID 651610. inhibition, % at 12.3 µM. HeLa-JRFL Env/CEM21 cell fusion, luciferase. actives 1.1% (n = 360,000);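 active = mean replicate inhibition score of at least 50 and every replicate individually at or above 50; inconclusive = only one of the two criteria met; inactive = mean below 50 and not all replicates reaching 50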;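 note: 0% = plate neutral controls and 100% = maraviroc near 300 nM; one replicate is shown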
eIF4H FP inh retest: further read-out of eIF4H FP inh, marked with its call; inhibition, %; compound at 20 µM; confirmation average;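 mean of two retest wells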
PABP FP inh retest: also measured in PABP FP inh; calls as there; inhibition, %; compound at 20 µM; confirmation repeats;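 mean of two retest wells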
MT1-MMP act inh RFP: also measured in MT1-MMP act inh; calls as there; RFP signal change, %; measured here: RFP expression control read;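 0 = vehicle wells; hits needed this value within 50% of zero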
* = called active by the depositor; i = inactive; ? = inconclusive; · = no result given. Compounds as they come, and some 2.9% of all compounds hit somewhere here.

The opening 3 entries, to show the layout:
SMILES	PABP FP inh	Yeast UUG start	CSC inhib	Rce1 inhib	MT1-MMP act inh	MT1-MMP act inh RFP	eIF4H FP inh	HIV Env fusion	others
CN1CCN(Cc2nc(Cc3ccccc3)no2)CC1c1ccccc1 (stereo unspecified)	-11.5	·	2.3	i	-4.1	-1.8	-1.9	-5.6
O=C(Nc1ccccc1F)c1csc([C@@H]2C[C@H](O)[C@@H](CO)O2)n1	·	-18.6	·	·	2.5	2.2	·	11.0
CCN(CC(=O)Nc1c(F)cccc1F)C(=O)CCOc1ccccc1	·	-0.9	-0.1	i	-0.5	-0.2	·	8.6

The listing (from the top)
SMILES	PABP FP inh	Yeast UUG start	CSC inhib	Rce1 inhib	MT1-MMP act inh	MT1-MMP act inh RFP	eIF4H FP inh	HIV Env fusion	others
CN1CCN(Cc2nc(Cc3ccccc3)no2)CC1c1ccccc1 (stereo unspecified)	-11.5	·	2.3	i	-4.1	-1.8	-1.9	-5.6
O=C(Nc1ccccc1F)c1csc([C@@H]2C[C@H](O)[C@@H](CO)O2)n1	·	-18.6	·	·	2.5	2.2	·	11.0
CCN(CC(=O)Nc1c(F)cccc1F)C(=O)CCOc1ccccc1	·	-0.9	-0.1	i	-0.5	-0.2	·	8.6
Cn1cc(C(=O)C(=O)N2CCN(c3ccccc3)CC2)c2ccccc21	7.9	-3.3	-2.5	i	0.2	-2.0	-7.2	1.1
Brc1ccc(-c2nc(-c3ccncc3)no2)o1	9.9	-15.4	4.4	i	·	·	4.9	-196.0
COc1ccccc1CNC(=O)[C@@H]1CCCN1S(=O)(=O)c1ccc(C)cc1	-2.4	·	-5.0	i	·	·	-3.0	3.7
COCc1c(C(=O)N2CCN(c3ccccc3C)CC2)oc2ccccc12	·	-5.6	41.5	·	-1.7	2.2	·	2.2
O=C(Cn1nc(-c2ccc(F)cc2)ccc1=O)Nc1ccc(C(=O)NC2CC2)cc1	3.9	·	15.0	i	-1.2	2.5	-2.3	·
CC(=O)N1c2ccc(S(=O)(=O)N3CCC(C(=O)Nc4cc(C)cc(C)c4)CC3)cc2CC1C (stereo unspecified)	2.3	-11.4	10.3	i	6.1	0.6	-7.8	18.1
CCCCNC(=O)c1ccc2c(OCC)n(CCCC)nc2c1	-3.3	-15.6	-2.2	i	-0.1	3.3	-5.8	20.6
CCc1cc2c(nc1CC)CCN(CC/C(C)=N/O[C@@H](C)c1cc(-c3c(C)cc(C)cc3C)no1)C2	6.9	·	30.1	i	·	·	40.8	·
CC12CCC(=O)N1C(C(=O)OCC(=O)Nc1ccc(S(N)(=O)=O)cc1)CS2 (stereo unspecified)	-5.9	·	4.0	i	3.2	6.9	-8.3	·
O=S(=O)(Nc1cccc(-c2cn3cccnc3n2)c1)c1ccccc1	6.5	-10.0	-3.2	i	4.6	1.7	2.4	-4.0
CCc1ccc(C(=O)COC(=O)[C@@H](NC(N)=O)[C@@H](C)CC)cc1	-27.0	·	-0.2	i	2.8	0.1	-11.5	-39.2
O=C(Nc1ccc(F)cc1)Nc1sccc1-c1nc2ccccc2s1	16.2	-16.3	10.1	i	-0.7	5.5	66.5	19.0	eIF4H FP inh retest=23.6;PABP FP inh retest=42.9
S=C(Nc1cccc(Cl)c1)N(CCCN1CCCC1)Cc1cccn1Cc1ccc(Cl)cc1	4.7	-24.0	96.0*	i	-8.6	-10.6	-6.0	10.6
COc1ccc(Cl)cc1NC(=O)CN(C)CC(=O)Nc1cccc(S(=O)(=O)N2CCCC2)c1	·	6.5	·	·	0.2	-15.9	·	12.0
O=C(NCCC1=CCCCC1)c1cc(-c2ccccn2)nc2ccccc12	3.8	-65.7	-2.9	i	3.2	2.0	-17.7	-21.4
CCOC(=O)C1(C)NC(c2ccc(N(C)C)cc2)C2C(=O)N(CC)C(=O)C21 (stereo unspecified)	0.0	-13.6	-5.4	i	0.9	2.3	-3.5	2.4
c1nc(Nc2ccc(N3CCOCC3)cc2)c2ccsc2n1	-15.8	3.1	-12.8	·	5.4	-2.4	20.4	-8.8
CCC/C=C/c1ccc(CN2C(C)C(=O)N(Cc3cn(Cc4ccco4)nn3)CCS2(=O)=O)cc1 (stereo unspecified)	·	-30.9	·	·	2.3	-1.5	·	-7.2
O=C(c1ccccc1)N1CCCC(c2nc3c(nnn3Cc3ccccc3)c(=O)[nH]2)C1 (stereo unspecified)	-0.9	-3.5	-12.7	i	-3.4	-0.4	-12.8	24.1
Cc1cc(C)n2nc(CC(=O)NCc3ccc(F)cc3)nc2n1	7.4	-13.4	-17.6	i	-5.6	1.0	0.7	·
CCN(CC)CCCNC(=O)C1c2cc(OC)c(OC)cc2C(=O)N(C)C1c1cccs1 (stereo unspecified)	7.5	-20.7	-12.8	i	5.7	5.8	11.2	1.0
O=C(COc1ccccc1F)NNC(=O)c1ccc(F)c(S(=O)(=O)N2CCOCC2)c1	·	-3.7	-0.9	·	3.1	2.8	·	·

Later entries:
SMILES	PABP FP inh	Yeast UUG start	CSC inhib	Rce1 inhib	MT1-MMP act inh	MT1-MMP act inh RFP	eIF4H FP inh	HIV Env fusion	others
N#Cc1c(NC(=O)COC(=O)c2nccnc2N)sc2c1CCCC2	·	-19.9	·	i	1.9	2.8	·	-49.8
Cc1ccc(NC(=O)C2CCCN2C(=O)NCc2ccccc2)cc1 (stereo unspecified)	10.4	-8.8	-25.1	i	-1.4	-3.2	-5.5	-10.6
COc1ccc(/C=N/Nc2ncccc2[N+](=O)[O-])c(OC)c1	-15.7	·	1.2	i	0.8	-1.5	-6.7	-35.0
Cc1noc(C)c1COc1ccc(C(=O)N2CCN(c3ccccn3)CC2)cc1	·	·	·	i	0.5	-0.8	·	-19.9
Cc1ccc(S(=O)(=O)NCc2ccccc2C)cc1	3.1	-18.7	-12.2	i	-1.1	2.5	-2.8	-7.0
COc1ccc(C(CNC(=O)c2cc(S(=O)(=O)NCc3ccco3)ccc2C)N(C)C)cc1 (stereo unspecified)	·	-18.8	-1.2	·	-3.6	-3.2	·	-41.3
CCCCN1C(=N)N([C@@H](C)CN2CCC[C@H]2CN2C(N)=NC[C@H]2CC(C)C)C[C@H]1Cc1ccccc1	·	-17.5	3.7	·	-5.0	1.8	·	-1.6
Cn1c(SCc2cccc(Br)c2)nnc1-c1ccccn1	-6.3	2.1	-2.0	i	1.9	-0.5	1.6	14.0
O=c1[nH]c(CSc2ccccc2)nc2c1oc1ccccc12	2.8	·	4.0	i	1.6	-1.8	1.1	8.7
CC(=O)NCCc1nc2ccccc2n1CCOc1ccccc1C	-0.3	-3.2	-26.2	i	-0.3	2.2	-3.8	2.8
CSc1nc(NC(C)=O)nc(C)c1Br	3.0	-19.8	-3.4	i	-0.7	3.9	-16.3	·
O=C(Nc1nc2c(s1)CCCC2)c1ccc(Br)o1	0.8	-23.2	-16.3	i	1.8	-1.4	4.7	·
COC(=O)c1sc(=S)n(-c2ccccc2)c1N	1.4	-9.8	-5.4	i	-0.1	2.5	3.8	-65.3
O=C1CCCc2cc3c(cc21)CC1(C3)Cc2cc3c(cc2C1)C(=O)CCC3	6.4	·	64.5	i	-5.3	-25.8	-7.8	-24.5
CC(C)[C@H](NC(=O)c1c(F)cccc1F)C(=O)OCC(=O)NNC(=O)c1ccccc1	·	-12.8	·	·	-10.2	-1.6	·	-19.5
COc1cccc(CC(=O)NCC2COc3ccccc3O2)c1OC (stereo unspecified)	-9.8	-9.1	-8.0	i	-1.7	-3.1	12.1	·
O=c1cc(CSc2nnnn2-c2ccccc2)[nH]c2[nH]n(-c3ccccc3)c(=O)c12	62.3*	-5.3	2.5	i	4.8	2.9	79.2*	·
C[C@H](NC(=O)C1(c2ccccc2)CCN(C(=O)OC(C)(C)C)CC1)C(=O)N[C@@H](C(=O)O)c1ccccc1	9.0	-17.0	-2.8	·	3.5	4.4	-5.8	·
COc1ccc(OCc2cc(C(=O)N(C)CCC3CCOCC3)no2)c(Cl)c1	5.2	9.1	-9.6	i	6.5	2.2	0.3	-3.4
CN(CC1CCCO1)S(=O)(=O)c1ccc(C(=O)Nc2ccc(S(N)(=O)=O)cc2)cc1 (stereo unspecified)	-7.6	3.0	-10.3	i	-1.1	-0.6	6.0	25.7
CCC1(c2ccccc2)NC(=O)N(CC(=O)Nc2cc(C(F)(F)F)ccc2N2CCCC2)C1=O (stereo unspecified)	·	·	-6.4	i	-2.2	-7.8	·	·
O=C(Nc1nc2cc3c(cc2s1)OCCO3)c1cccs1	2.5	·	28.4	i	-1.5	-23.5	1.1	-158.7
COc1ccc(OC(=O)c2ccc(OC)c(S(=O)(=O)N3CCOCC3)c2)cc1	0.2	16.9	-9.1	i	-0.2	6.7	-5.4	i
O=C(COC(=O)/C=C/c1cccs1)NC1CC1	-8.7	·	17.1	·	-2.4	-0.5	0.7	14.2
COCCOC(=O)C1=C(C)NC(=S)NC1/C=C/c1ccccc1 (stereo unspecified)	10.2	·	-25.5	i	-2.3	-6.3	-12.9	-48.7

Additional records
SMILES	PABP FP inh	Yeast UUG start	CSC inhib	Rce1 inhib	MT1-MMP act inh	MT1-MMP act inh RFP	eIF4H FP inh	HIV Env fusion	others
Cc1csc(NC(=O)COc2ccc3c(C)cc(=O)oc3c2)n1	-16.1	3.5	-4.4	i	0.1	0.9	-4.3	·
COc1ccc(C2=NN(c3ccc(C=O)cc3)C(c3ccccc3)C2)cc1 (stereo unspecified)	-11.5	·	29.2	?	·	·	-6.3	·
CCCCCSc1nc2c(cnn2-c2ccccc2)c(=O)[nH]1	1.7	-0.8	-1.9	·	5.0	13.9	-5.4	·
CCn1c(Sc2ccc(N)cc2Cl)nc2ccccc21	-14.1	8.8	3.2	i	6.2	-4.2	-8.1	-13.3
COc1ccc(-c2cc(-c3ccccc3)c(C#N)c(S(C)(=O)=O)n2)cc1	-0.9	-17.1	-1.4	·	-28.2	-29.9	-8.6	-100.7
Fc1cccc(CNc2ncnc3ccc(-c4ccc5c(c4)OCO5)cc23)c1	·	-8.8	59.4	·	1.0	-16.7	·	41.8
CCOC(=O)c1csc(CCNC(=O)c2oc3c(Cl)cc(C)cc3c2C)n1	-6.5	-5.1	-9.8	i	-1.9	-0.9	-3.8	-14.6
CCCCNC(=O)C(NS(=O)(=O)c1cccc2nsnc12)c1ccccc1 (stereo unspecified)	-12.6	2.3	-10.6	i	-1.9	1.6	-5.1	-72.8
O=C(NC1CCCC1)C(c1ccsc1)N(C(=O)Cc1cccs1)c1ccccc1 (stereo unspecified)	3.5	-17.6	3.2	i	-2.9	1.9	9.3	·
O=C(c1cnc2ccccn2c1=O)N1CCc2ccccc21	6.3	-14.2	-12.6	·	0.5	6.2	-1.8	·
CCN(c1cccc(C)c1)S(=O)(=O)c1ccc2c(c1)CCN2C(C)=O	1.2	-3.4	31.1	i	2.3	-6.6	-3.4	-3.5
CCOC(=O)c1ccc(N2CCCCC2)c(NS(=O)(=O)c2cccc(C(F)(F)F)c2)c1	-4.1	0.0	13.8	i	-1.1	-7.7	-1.7	64.2*
CCCN(CCC)Cc1cc(=O)oc2cc(C)cc(C)c12	·	15.5	·	·	-1.9	-2.3	·	9.7
O=C(O)CSc1nc2ccccc2n1C1CCCCC1	2.3	·	-27.6	i	-0.5	2.6	-1.2	8.8
COc1cc(C)c(CNC2CCCCC2)cc1C	-1.4	6.0	13.3	·	3.1	5.1	4.4	-4.5
Cc1cc(C(=O)N/N=C/c2ccc(O)c([N+](=O)[O-])c2)c(C)n1-c1ccc(F)cc1	3.4	-18.4	0.9	i	15.4	-3.9	30.9	18.9
